# CBX7 AlphaScr = blocks human CBX7 binding to H3K27me3 peptide. O95931. actives 1.1% (n = 66,000). AID 1224903. normalised signal (fraction of DMSO) (test concentration not listed). AlphaScreen His6-CBX7 / biotin-H3K27me3 peptide binding; hits give low values; in the data active means normalised signal below about 0.5;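 further: 100 nL library stock added to about 20 µL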
# Target sequence (O95931 whole entry, looked up): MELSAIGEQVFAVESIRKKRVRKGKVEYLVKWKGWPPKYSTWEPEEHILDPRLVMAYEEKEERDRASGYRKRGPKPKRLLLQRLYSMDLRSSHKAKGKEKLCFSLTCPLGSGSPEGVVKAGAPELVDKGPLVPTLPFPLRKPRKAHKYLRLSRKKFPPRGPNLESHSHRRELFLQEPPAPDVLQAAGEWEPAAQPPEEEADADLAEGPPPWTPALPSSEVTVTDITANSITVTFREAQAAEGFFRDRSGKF
# CBX7 AlphaScr z-score = further read-out of CBX7 AlphaScr, marked with its call; z-score; measured here: z-score of CBX7 signal; some inactives read as strong as hits; reference of the scale not given here;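 same signal on another scale; lower means less binding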
# Starred values were filed as active, the others as inactive. These rows are one share of the data; the hit share may differ from the screen's.
SMILES	CBX7 AlphaScr	CBX7 AlphaScr z-score
CC(C)(C)c1cn2c3ccccc3n(CCN3CCCCC3)c2n1	1	0.29
Fc1ccc(C2CC(c3ccc(Br)cc3)Nc3ncnn32)cc1 (configuration not stated)	1	0.99
COc1ccc(NC(=O)CSc2nc3ccc(C)cc3[nH]2)cc1	0.98	-0.025
O=c1c2c(nc3n1CC(O)CS3)-c1ccccc1CC21CCCCC1 (configuration not stated)	1.1	0.59
O=C(Nc1ccc2nn(-c3ccccc3)nc2c1)C(F)(F)F	0.93	-1.6
Cc1nnc(NC(=O)CSc2nccn2-c2cccc(Cl)c2)s1	0.94	-0.21
Cc1ccc(CCNC(=O)CN2CCN(Cc3ccccc3C)C2=O)cc1	1	1.6
CC(C)C(NS(=O)(=O)c1cccs1)C(=O)NCc1ccccc1 (configuration not stated)	1	-0.0084
CCOc1ccc(-n2c(C)nc3cc(C(=O)NCCC4=CCCCC4)ccc32)cc1	0.99	-0.12
C=C(C)c1cccc(C(C)(C)NC(=O)Nc2ccccc2C(=O)OC)c1	1.3	2.3
CCOc1ccc(-n2c(Cc3cc(=O)[nH]c(=O)[nH]3)nnc2SCc2cccc(Cl)c2)cc1	1	0.21
c1ccc(-n2ncnc2-c2ccc3c(c2)OCO3)cc1	1.1	1.5
O=C(COc1ccccc1)Nc1ccc2oc(-c3cccnc3)nc2c1	1.5	2.1
CCN1CCN(c2ncc(C(=O)NCc3ccc(F)cc3)c3ccccc23)CC1	1.5	1.1
Cc1ccccc1CSc1nc2ccc(Cl)cc2[nH]1	1.1	2.9
O=C(NCc1cccs1)c1ccc2c(c1)N(Cc1cccc(Cl)c1)C(=O)c1ccccc1S2	0.74	-3.4
Cc1nc(Nc2ccc3c(c2)OCCO3)c2c3c(sc2n1)CCCC3	0.85	-0.2
Cc1ccc(-c2nn(CCC(=O)Nc3ccccc3C)c(=O)c3ccccc23)cc1	0.98	-0.49
COc1ccccc1Nc1ncc(C(=O)N2CCC(Cc3ccccc3)CC2)c2ccccc12	1.1	0.94
COc1ccc(Br)cc1CNC(=O)Cc1cn(C)c2ccccc12	0.91	-3
COc1cccc(NC(=O)c2oc3ccc(S(=O)(=O)N4CCCCCC4)cc3c2C)c1	1	0.81
COc1ccc(S(=O)(=O)N2CC=C(C(=O)NCCc3ccccc3)CC2)cc1	1	0.082
Nc1nonc1-c1noc(-c2ccc(Cl)c(Cl)c2)n1	1.1	1.2
CCC1=Nc2cc(C(=O)NCCC(C)C)ccc2Sc2ccc(Cl)cc21	1	1.7
Cc1ccccc1Nc1c(-c2ccncc2)nc2ccc(Br)cn12	1	0.37
COc1ccc(CN2CCC(N3CCN(c4ccccc4)CC3)CC2)cc1OC	0.97	-0.89
COc1ccc(OC)c(C2C(N3C(=O)c4ccccc4C3=O)C(=O)N2c2ccc(C)cc2)c1 (configuration not stated)	0.81	-5.5
O=C(Nc1ccc(F)cc1F)c1cc(-c2ccc(Br)cc2)on1	1	0.19
O=C(C1CCN(S(=O)(=O)c2cnc[nH]2)CC1)N1CCN(c2ccc(F)cc2)CC1	1	0.013
O=C(Cn1nc(Cc2ccncc2)c2ccccc2c1=O)NCCN1CCOCC1	1.1	2.2

# Given with two lines to a compound: entries from further up.
# Each structure is followed by: CBX7 AlphaScr	CBX7 AlphaScr z-score
- Cc1ccccc1Nc1c(-c2ccncc2)nc2ccc(Br)cn12
 : 1	0.37
- COc1ccc(CN2CCC(N3CCN(c4ccccc4)CC3)CC2)cc1OC
 : 0.97	-0.89
- COc1ccc(OC)c(C2C(N3C(=O)c4ccccc4C3=O)C(=O)N2c2ccc(C)cc2)c1 (configuration not stated)
 : 0.81	-5.5

# Carrying on:
SMILES	CBX7 AlphaScr	CBX7 AlphaScr z-score
Cc1ccnc2c(N3C(=O)C4C5C=CC(C5)C4C3=O)cccc12 (configuration not stated)	0.97	-0.3
O=C1CCCC2=C1C(c1cccs1)CC(=O)N2c1ccc(F)cc1 (configuration not stated)	1	0.53
CCC1Oc2ccccc2N(CC(=O)NCc2ccc(C)cc2)C1=O (configuration not stated)	0.96	-1.2
Cc1cc(C)c(NC(=O)c2cnc3scc(C)n3c2=O)c(C)c1	1.1	0.42
COc1cccc2c(Nc3cccc(O)c3)cc(C)nc12	0.86	-0.49
CC(C)OCCCNC(=O)CN1C(=O)CSc2ccc(S(=O)(=O)N3CCCCC3)cc21	1	0.55
O=C(NCc1ccccc1Cl)c1cc(=O)nc2sc(-c3cccs3)nn12	1.1	0.55
Cc1cc(N2CCC(C)CC2)nc2ccc(NC(=O)CCC(=O)N3CCCCC3C)cc12 (configuration not stated)	1.2	6.6
CCOc1ccc(-n2cc(C(=O)Nc3ccccc3F)c3cc(OC)c(OC)cc3c2=O)cc1	0.9	-2.8
COc1ccc(N2Cc3cccc(C(=O)NCc4ccc(C)cc4)c3C2=O)cc1	1	0.22
CCOc1ccc(-c2nc(CSCC(=O)NCc3ccccc3Cl)c(C)o2)cc1	0.92	-1.1
COc1ccc(-c2nn(C)c3sc(C(=O)Nc4ccc(Cl)cn4)cc23)cc1OC	1	0.068
CCc1ccc(Sc2cc(C(=O)NCCCN3CCOCC3)c3ccccc3n2)cc1	0.99	-0.55
CCCCC(=O)Nc1cccc(-c2csc(-c3ccccc3)n2)c1	1.1	4.3
CCOC(=O)C1CCN(C(=O)c2cn(CC)c3nc(C)ccc3c2=O)CC1	1.1	0.78
COc1ccc(OCC(=O)NCCc2c[nH]c3ccccc23)cc1	0.99	-0.24
CCc1ccc(-c2nc(CN3CCC(C(=O)NCCCN4CCCC4=O)CC3)c(C)o2)cc1	0.85	-2.3
COc1ccccc1Nc1nc(-c2ccccc2F)nc2ccccc12	1.6	0.79
COc1ccc(CN2CCN(Cc3ccccc3Br)CC2)c(OC)c1OC	0.99	-0.25
Cc1ccc(S(=O)(=O)c2nc(-c3cccc(Cl)c3)oc2N2CCOCC2)cc1	0.68	-3.1
CC(=O)N1CCc2cc(S(=O)(=O)N3CCCC(C)C3)ccc21 (configuration not stated)	1.1	0.91
O=C(Nc1cccs1)Nc1ccccc1Br	1	1.1
O=C(c1cc2c(s1)-c1ccccc1OC2)N1CCCCCC1	1.1	2.6
COc1ccc(CN=C2NS(=O)(=O)c3ccccc32)cc1	1	0.042
Cc1ccc(NC(=O)c2cn(-c3ccc(F)cc3F)c(=O)c3ccccc23)c(Br)c1	0.89	-1.6
Oc1ccccc1-c1cc(-c2ccc(F)cc2)cc(-c2ccccc2)n1	0.97	-0.53
O=C(CC1NCCNC1=O)Nc1ccc(F)cc1 (configuration not stated)	0.99	-0.31
COc1cc(Cl)c(C)cc1NC(=O)c1cn(-c2ccc(C)c(C)c2)c(=O)c2ccccc12	0.95	-0.33
CCSc1nnc(Cc2cc(=O)[nH]c(=O)[nH]2)n1-c1ccc(F)cc1	1.1	2.4
Cc1cc2ncn(CC(O)COCc3ccccc3)c2cc1C (configuration not stated)	0.051*	-18*
CC(C)Oc1ccc(C2(C)CC(=O)NC2=O)cc1 (configuration not stated)	1	-0.046
CN(C)CCn1nnc2c(=O)oc3ccccc3c21	1.1	0.65
C=CCN1C(=O)N(c2ccc(F)cc2)C(=O)C1CC(=O)Nc1ccc(Cl)cc1 (configuration not stated)	1	0.021
COc1ccc(-n2c3c(cc(C(=O)Nc4cccc(C#N)c4)c2=O)C(=O)CCC3)cc1	0.96	-1.3
CCc1cccc(NC(=O)CCNS(=O)(=O)c2ccc3c(c2)CCN3C(C)=O)c1	1	1.1
COc1ccccc1CNC(=O)C1CCN(Cc2nc(-c3ccccc3C)oc2C)CC1	0.8	-3
CCN(CCCNC(=O)c1ccc2c(c1)NC(=O)CS2)c1ccccc1	0.75	-2.7
Cc1cccc(C)c1NC(=O)C1CCN(c2nc3ccccc3[nH]2)CC1	1	0.5
COc1ccccc1OC(C)C(=O)N(Cc1ccc(Cl)cc1)C1CCS(=O)(=O)C1 (configuration not stated)	1.1	2.1
CCc1ccccc1NC(=O)c1c(Cl)ccc(Cl)c1OC	1.1	0.13
Cc1ccc(CNC(=O)c2ccc(CNc3c(N4CCC(C)CC4)c(=O)c3=O)cc2)cc1	1	0.19
Cc1ccc(NC(=O)c2cnc(N3CCN(c4ccccn4)CC3)c3ccccc23)cc1F	1	0.68
Cc1ccccc1CN1C(=O)C(C(C)C(=O)NCc2ccc(F)cc2)Sc2ccccc21 (configuration not stated)	0.97	-0.55
Cc1cc(NC(=O)NC(=O)c2ccc(F)cc2F)n[nH]1	0.91	-0.88
Cc1ccc(CNC(=O)C2CCN(S(=O)(=O)c3ccc(F)cc3)CC2)cc1	1.1	2.7
CC1CCCCN1C(=O)c1cc2n(n1)C(C(F)(F)F)CC(c1ccc(Cl)c(Cl)c1)N2 (configuration not stated)	1.1	1.5
COC(=O)c1c(NC(=O)COc2cc(C)ccc2C)sc2c1CCCC2	1.1	1.3
CC(=O)Nc1nc(C)c(-c2csc(Nc3ccc(C)cc3)n2)s1	0.64	-0.43
CCCCN(C)C(=O)c1ccc2c(c1)N(CC)C(=O)c1ccccc1S2=O (configuration not stated)	1	0.59
Cc1nc2ccc(S(=O)(=O)NC(C(=O)NCc3ccc(F)cc3)C(C)C)cc2s1 (configuration not stated)	0.97	-0.4
CCS(=O)(=O)N1CCC(C(=O)NCc2ccc(OC)cc2)CC1	1.1	0.95
COc1ccccc1CNC(=O)C1CCN(Cc2nc(-c3ccc(OC)c(OC)c3)oc2C)CC1	1.1	2
CCn1cc(C(=O)NCc2ccccc2OC)c2cc(OC)c(OC)cc2c1=O	1	0.51
CCN1C(=O)c2ccccc2Sc2ccc(C(=O)NC3CCCCC3C)cc21 (configuration not stated)	1	0.78
COc1ccccc1NC(=O)Cn1cnc2sc(C(=O)Nc3cccc(C(F)(F)F)c3)c(C)c2c1=O	0.84	-1.7
CCOc1ccc(N2C(=O)Cn3cccc3C2C(=O)NC2CCCC(C)C2C)cc1 (configuration not stated)	0.88	-2.2
CCC1Oc2ccccc2N(CC(=O)NCc2ccc(OC)cc2)C1=O (configuration not stated)	0.95	-1.6
CC1CCN(C(=O)CCNC(=O)Cn2ccc3ccccc3c2=O)CC1	1	0.42
CCc1ccc(-c2nc3cc(NS(=O)(=O)c4ccccc4)ccc3o2)cc1	1	0.81
Cc1nccc2[nH]c(=O)c(C(=O)NCc3ccccc3Cl)cc12	1.2	1.4

# Copied from the list:
# CBX7 AlphaScr, CC(=O)Nc1nc(C)c(-c2csc(Nc3ccc(C)cc3)n2)s1 is entered as 0.64
# CBX7 AlphaScr z-score, Cc1cc(NC(=O)NC(=O)c2ccc(F)cc2F)n[nH]1 is entered as -0.88
# CBX7 AlphaScr, CCN(CCCNC(=O)c1ccc2c(c1)NC(=O)CS2)c1ccccc1 is entered as 0.75
# CBX7 AlphaScr, COc1ccccc1CNC(=O)C1CCN(Cc2nc(-c3ccccc3C)oc2C)CC1 is entered as 0.8
# CBX7 AlphaScr z-score, Cc1ccc(CNC(=O)C2CCN(S(=O)(=O)c3ccc(F)cc3)CC2)cc1 is entered as 2.7
# CBX7 AlphaScr, COc1ccccc1NC(=O)Cn1cnc2sc(C(=O)Nc3cccc(C(F)(F)F)c3)c(C)c2c1=O is entered as 0.84
# CBX7 AlphaScr, C=CCN1C(=O)N(c2ccc(F)cc2)C(=O)C1CC(=O)Nc1ccc(Cl)cc1 (configuration not stated) is entered as 1

# Further results follow.
canonical_smiles	CBX7 AlphaScr	CBX7 AlphaScr z-score
COc1ccc(C2C(=O)N(C3CCCCCC3)CC(=O)N2CCc2ccc(OC)c(OC)c2)cc1 (configuration not stated)	1.3	1.2
O=C(NCc1ccccc1)c1nn2c(c1Br)NC(c1ccccc1)CC2C(F)(F)F (configuration not stated)	0.97	-1.2
CCC(C)NC(=O)C1CCN(S(=O)(=O)c2ccc3c(c2)CCC(=O)N3)CC1 (configuration not stated)	0.99	-0.089
COc1cc2c(c(OC)c1)C(c1ccccc1OC(C)C)CC(=O)N2 (configuration not stated)	1	0.044
COc1ccc(CC(=O)Nc2ccc(-c3noc(COc4cccc(C)c4C)n3)cc2)cc1	1.1	0.6
CC(=O)N1c2ccc(S(=O)(=O)Nc3ccccc3N3CCN(C)CC3)cc2CC1C (configuration not stated)	0.98	-0.48
Cc1ccc(-c2nnc(Nc3ccc(F)cc3)c3ccccc23)cc1S(N)(=O)=O	0.89	-1.3
COc1ccc(CCNC(=O)C2CCN(C(=O)N(C)C)CC2)cc1OC	1	0.43
Cc1noc(/C=C/c2cccs2)c1S(=O)(=O)N1CCCC(C(=O)NCC2CCCO2)C1 (configuration not stated)	1	0.21
O=C(C1CC1)N1CCc2cc(S(=O)(=O)N3CCN(c4ccccc4Cl)CC3)ccc21	1	0.35
Cc1ccc(C)c(N2CCN(S(=O)(=O)c3ccc4c(c3)n(C)c(=O)c(=O)n4C)CC2)c1	1.1	0.76
COc1ccc(-n2c3c(cc(C(=O)Nc4ccc(Br)cc4)c2=O)C(=O)CC(C)(C)C3)cc1	1	0.15
CN1CCN(Cc2c(O)ccc3c(=O)c(-c4ccccc4)c(C(F)(F)F)oc23)CC1	1	0.54
CCN1CCN(CCCNC(=O)C(C)n2ncc3ccccc32)CC1 (configuration not stated)	0.97	-0.67
CCOC(=O)c1cc(-c2ccc(OC)cc2)n(CCC(=O)Nc2cccc(C)c2C)c1C	0.98	-0.19
Cc1cccc(-n2c(C)nc3c(cnn3-c3ccc(F)cc3)c2=O)c1	0.97	-0.35
COc1cccc(-c2cc(C(=O)Nc3ccc(C)cc3)no2)c1	1.1	0.86
NC(=O)c1nn2c(C(F)(F)F)cc(-c3ccc(F)cc3)nc2c1Cl	0.87	-1.6
O=C(CSc1oc(-c2ccccc2)nc1S(=O)(=O)c1ccc(F)cc1)c1ccc(Cl)cc1	0.89	-0.88
COC(=O)c1ccc2c(c1)N(Cc1cccc(F)c1)C(=O)CS2=O (configuration not stated)	0.98	-0.38

# In another format: entries from further up
CCN1CCN(CCCNC(=O)C(C)n2ncc3ccccc32)CC1 (configuration not stated)
  CBX7 AlphaScr = 0.97
  CBX7 AlphaScr z-score = -0.67

CCOC(=O)c1cc(-c2ccc(OC)cc2)n(CCC(=O)Nc2cccc(C)c2C)c1C
  CBX7 AlphaScr = 0.98
  CBX7 AlphaScr z-score = -0.19
